Screening results deposited in PubChem BioAssay by Emory University Molecular Libraries Screening Center.
Measles inh: inhibitors of measles virus growth in infected cells; AID 745; z-score (concentration not given with the values); infected Vero cells, GFP fluorescence, 64 h; active compounds read low; 33,000 compounds, 0.1% hits;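 active means z-score under -3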;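 further: score is relative to mean and SD of the compound wells of a plate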
* marks the source's active call; other numbers are inactive results. An excerpt; count on the stated rates, not on these rows.

SMILES	Measles inh
COc1ccc(NC(=O)c2ccc3c(c2)C(=O)N(c2ccc(OC)cc2[N+](=O)[O-])C3=O)c([N+](=O)[O-])c1	2.1
O=C(CCC1N=C2c3ccccc3N=C(SCc3cccc([N+](=O)[O-])c3)N2C1=O)NCc1ccco1 (configuration not stated)	0.08
CCc1ccc(NC(=O)c2ccc(NCc3ccccc3OC)c([N+](=O)[O-])c2)cc1	-0.2
CN(C)c1ccc2[nH]c(=S)n(CC3CCCO3)c(=O)c2c1 (configuration not stated)	0.13
O=C1CSC(c2cccnc2)N1c1cccc(F)c1 (configuration not stated)	-0.35
Cc1ccc(CNC(=O)CSc2nc3ccsc3c(=O)n2Cc2ccccc2F)cc1	-3.9*
CC1=C(C(=O)Nc2nc3ccccc3s2)C(c2cc([N+](=O)[O-])ccc2Cl)C2=C(CC(C)(C)CC2=O)N1 (configuration not stated)	-0.7
CCCCN(CC)S(=O)(=O)c1ccc(F)c(C(=O)Nc2cccc(F)c2)c1	-1
NC(=O)c1cc2cc(Br)ccc2oc1=Nc1ccc(Oc2ccccc2)cc1	-0.09
COc1ccc(C(=O)Nc2c3c(nn2C(C)(C)C)CS(=O)C3)c(OC)c1 (configuration not stated)	-0.57
Cc1ccc(NC(=O)c2ccc([N+](=O)[O-])cc2)c(Br)c1	0.32
CCCn1c(=S)[nH]c2cc(C(=O)O)ccc2c1=O	-0.25
CC(=O)N1CCc2cc(Br)cc(S(=O)(=O)N3CCCCCC3)c21	0.42
CCCOc1ccc(C2C(=O)N(C3CCCCCC3)CC(=O)N2Cc2ccc3c(c2)OCO3)cc1OC (configuration not stated)	0.6
CCN(C(=O)CCS(=O)(=O)c1ccc2c(c1)CCN2C(C)=O)c1ccc(C)c(C)c1	0.39
COc1ccc(NC(=O)CN2C(=O)c3cccc4cccc(c34)C2=O)cc1	2
Nc1cccc(C(=O)Nc2ccc(-c3ccccc3)cc2)c1	-0.16
CCCCN(C)C(=O)c1sc2ncn(CC)c(=O)c2c1C	1.1
COc1ccc(Nc2ncc(C(=O)Nc3ccc(Br)cc3C)c3ccccc23)cc1	1.1
O=C(COc1ccc(Br)cc1)Nc1ccccc1Cl	-0.07
COc1ccccc1Nc1cc(C(=O)NCc2ccc(F)cc2)c2ccccc2n1	1.8
CC(=O)Nc1cc(C(=O)NCc2cccnc2)ccc1S(=O)(=O)c1ccc(Cl)cc1	-0.88
O=C(Nc1ccc(Cl)cn1)c1ccc(Br)cc1	0.43
O=C(O)c1cc(Sc2ccccc2)nc2ccccc12	0.92
COc1cc(C2C3=C(CCCC3=O)N(C)C3=C2C(=O)CCC3)ccc1OCc1ccc(F)cc1	0.64
Cc1ccc(N=Cc2cc(I)cc(C)c2O)c(O)c1	0.1
CN1CCN(Cc2c(C#N)c3ccccc3n2C)CC1	0.03
CCOC(=O)C1=NN(c2ccc(Br)cc2)C2C(=O)N(c3ccccc3Cl)C(=O)C12 (configuration not stated)	1.2
CCCc1ccc(C#N)c(SCC(=O)Nc2ccc(S(N)(=O)=O)cc2)n1	0.87
Cn1c2ccccc2c2nn(-c3ccccc3)c(=O)cc21	-0.94
COc1cc(C2NC(C(=O)O)CS2)cc(Br)c1OC (configuration not stated)	-0.14
COc1ccc(-c2noc(CCC(=O)NC(C)c3ccc4c(c3)OCCO4)n2)cc1 (configuration not stated)	-0.94
CCn1cnc2sc(C(=O)Nc3cccc([N+](=O)[O-])c3)c(C)c2c1=O	-1.1
O=[N+]([O-])c1ccc(N2CCN(S(=O)(=O)c3ccc(Cl)cc3)CC2)cc1N1CCc2ccccc2C1	-0.13
CC(C)(C)C1CCc2c(sc3c2C(=O)NC(c2cccc(Cl)c2)N3)C1 (configuration not stated)	-0.28
CCN1C(=O)CC(N2CCN(Cc3ccc4c(c3)OCO4)CC2)C1=O (configuration not stated)	0.26

Part of the list above in order of SMILES length, low to high:
SMILES	Measles inh
CN1CCN(Cc2c(C#N)c3ccccc3n2C)CC1	0.03
CCCc1ccc(C#N)c(SCC(=O)Nc2ccc(S(N)(=O)=O)cc2)n1	0.87
COc1ccc(Nc2ncc(C(=O)Nc3ccc(Br)cc3C)c3ccccc23)cc1	1.1
COc1cc(C2C3=C(CCCC3=O)N(C)C3=C2C(=O)CCC3)ccc1OCc1ccc(F)cc1	0.64

Remaining list, next part:
SMILES	Measles inh
NC(=O)c1cc[n+](CC(=O)Nc2ccccc2C(=O)O)cc1	0.52
CCN(CC)C(=O)Cn1cnc2sc(C(=O)Nc3cc(F)ccc3C)c(C)c2c1=O	-0.88
CCOc1ccccc1NC(=O)CSc1nc2c([nH]c3ccccc32)c(=O)n1-c1ccc(C)cc1	0.88
Cc1cc(C)c(C(=O)CC2(O)C(=O)Nc3ccccc32)c(C)c1 (configuration not stated)	-0.13
CCOc1ccc2nc(C)cc(Nc3cccc(OC)c3)c2c1	-0.07
Cc1onc(-c2ccccc2Cl)c1C(=O)Nc1c2c(nn1-c1ccc([N+](=O)[O-])cc1)CSC2	0.16
COc1ccc(CNC(=O)CCc2nc3ccccc3n(Cc3ccc(F)cc3)c2=O)cc1	1.6
CCOc1ccc(N2C(=O)c3ccccc3NC2c2ccc(C(=O)OC)cc2)cc1 (configuration not stated)	-0.87
CCOc1ccc(-n2ccnc2SCC(=O)Nc2cccc(C(F)(F)F)c2)cc1	-1.2
CCOC(=O)c1cnc2cc(C(F)(F)F)ccc2c1Nc1ccc(Br)cc1C	0.43
O=C1c2ccccc2C2=Nc3ccccc3SC(c3ccc(F)cc3)C12 (configuration not stated)	0.02
COC(=O)C1=C(N)OC2=C(C(=O)CC(c3ccccc3)C2)C1c1ccc(Cl)c([N+](=O)[O-])c1 (configuration not stated)	-0.31
CC1CN(S(=O)(=O)c2ccc(C(=O)Nc3nc4c(cc5c6c(cccc64)CC5)s3)cc2)CC(C)O1 (configuration not stated)	-0.51
CC1=C(C(=O)OCCc2ccccc2)C(c2ccc(C)s2)C2=C(CCCC2=O)N1 (configuration not stated)	0.75
CN(C(=O)CCn1c(=S)oc2ccccc21)C1CCCCC1	-2.7
O=[N+]([O-])c1cccc(-n2cccc2)c1	0.35
O=C(O)CCCCCN1C(=O)CCC1=O	0.75
O=C(CCCn1c(=S)[nH]c2cc3c(cc2c1=O)OCO3)NC1CC1	0.47
O=C1C2C3C=CC(CC3)C2C(=O)N1c1ccc(F)cc1 (configuration not stated)	-0.56
Cc1ccn2c(Nc3ccccc3C)c(-c3cccnc3)nc2c1	-1.5
O=C(NCCN1CCN(Cc2ccccc2Cl)CC1)C(=O)Nc1ccc(Br)cc1	0.98
CCC(=O)N(CCc1ccc(OC)cc1)C1CC(=O)N(c2ccc(Br)cc2)C1=O (configuration not stated)	1.1
CCOc1ccc(-n2c(C)c(C(C)=O)c(C(C)=O)c2C)cc1	0
CCC1(C)Cc2c(sc3nc(SCC(=O)O)n(-c4ccccc4)c(=O)c23)CO1 (configuration not stated)	-0.31
CCCOc1cccc(C(=O)Nc2ccc(-c3nc4ccccc4[nH]3)cc2)c1	-1.7
CCCSc1cccc(C#N)c1C#N	-0.08
O=C1C(=O)N(CCO)C(c2cccc(F)c2)/C1=C(\O)c1ccccc1 (configuration not stated)	-0.02
CCOC(=O)c1cc2ccc(O)cc2oc1=O	-0.17
CC1(C)CC(=O)c2c(-c3ccc(F)cc3)n[nH]c2C1	0.65
CCN(CC)CC(O)Cn1c(-c2cccc([N+](=O)[O-])c2)nc(=S)c2c1CCCC2 (configuration not stated)	0.53
O=C1NC(=O)C(CC(=O)N(Cc2ccco2)C2(C(=O)NC3CCCCC3)CCCCC2)N1 (configuration not stated)	-0.5
O=C(O)CC(NC(=O)c1ccc([N+](=O)[O-])cc1)c1ccc(F)cc1 (configuration not stated)	1.4
CCOc1ccccc1N1C(=O)C2C3c4ccccc4C(C)(c4ccccc43)C2C1=O (configuration not stated)	-0.55
COc1cc(Nc2nc(SCc3cc(=O)n4ccccc4n3)nc3ccccc23)cc(OC)c1OC	0.57
O=C1OC(Nc2ccc(Cl)c(C(F)(F)F)c2)c2ccccc21 (configuration not stated)	-0.1
Cc1cc(N2CCOCC2)nc2ccc(NC(=O)CCC(=O)N3CCOCC3)cc12	-1.4
COc1cc2c(cc1OC)C(COc1cc(C)cc(C)c1)N(C(=O)Cc1ccc(F)cc1)CC2 (configuration not stated)	-0.04
CCC(=O)N1c2ccc(S(=O)(=O)NCCc3ccc(C)cc3)cc2CC1C (configuration not stated)	-0.18
COc1ccccc1N1CCN(C(=O)C2CCN(S(=O)(=O)c3ccc(Cl)cc3)CC2)CC1	-1.4
O=C(CCn1c(=S)[nH]c2cc3c(cc2c1=O)OCO3)N1CCN(c2ccccn2)CC1	-1
COc1cc(C2Nc3cccc4cccc(c34)N2)cc(Br)c1O	0.32
CCOc1ccccc1C1C(C(=O)OC)=CN(C(C)C)C=C1C(=O)OC	0.1
CCOc1sc2nc(C)n(CC(=O)Nc3cccc(C)c3)c(=O)c2c1C	-0.65
Cc1cc(Cl)ccc1OCCCC(=O)NCc1ccncc1	1.7
Cc1ccc(-n2nc(C(=O)N(C)c3ccc(Cl)cc3)c3c4ccccc4n(C)c3c2=O)cc1	-1.4
CCCCCC(=O)Nc1ccc(C(=O)Nc2cccc(Cl)c2)cc1	-0.11
CN(C)S(=O)(=O)c1ccc(C(=O)N2CC(=O)Nc3ccc(Cl)cc3C2c2ccc(F)cc2)cc1 (configuration not stated)	0.87
CCN(CCCNc1nc(=S)[nH]c2ccccc12)c1ccccc1	-0.49
COc1cc(Cl)c(C)cc1NC(=O)c1cc2cc3ccc(C)cc3nc2o1	-0.03
CCN(CC)S(=O)(=O)c1ccc(C(=O)Nc2nnc(-c3ccc(Cl)s3)o2)cc1	-0.77
O=C(NCc1cccnc1)c1cc(-c2ccc(F)cc2)on1	0.44
O=C1CC(c2ccccc2)n2ncnc2N1 (configuration not stated)	-0.12
Cc1ccc(CN2C(=O)c3ccccc3C2C(=O)NCC2CCCO2)cc1 (configuration not stated)	-1.2
CCc1ccc2[nH]cc(C(=O)c3ccc(C)c(C)c3)c(=O)c2c1	0.22
COc1ccc(-n2c(=O)c3c(n4c(SC)nnc24)-c2ccccc2CC32CCCCC2)cc1	0.28
CCCN(c1ccc(C(C)C)cc1)S(=O)(=O)c1ccc2c(c1)CC(C)N2C(C)=O (configuration not stated)	1.1
Cc1c(C2c3ccccc3Oc3ccccc32)c(=O)n(-c2ccccc2)n1C	0.05
O=C(NCCNC(=O)c1ccccc1Br)c1ccccc1Br	-0.88
Cc1ccc(-n2nc3c(c2NC(=O)c2ccccc2F)CSC3)cc1	-0.74
Cc1cccc(Cn2c(=O)n(CCC(=O)NCc3ccco3)c(=O)c3ccccc32)c1	0.38

Later entries.
SMILES	Measles inh
CSc1ccc(C2Nc3ccccc3NC3=C2C(=O)CC(C)(C)C3)cc1 (configuration not stated)	-0.83
CC1(C)CC(=O)C2=C(C1)N(c1cccc(O)c1)C(=O)CC2c1ccccc1 (configuration not stated)	-0.03
C=C(C)Cn1c(CCNC(=O)c2ccccc2)nc2ccccc21	-0.36
O=C(CSc1nnc(-c2ccccc2)o1)N1CCCCC1	0.02
Cc1ccc(NC(=O)CN2C(=O)c3ccccc3Sc3ccc(C(=O)N4CCCC4)cc32)c(C)c1	-1.9
CCCCSc1nnc2c(n1)OC(c1ccc(OCC)cc1)Nc1ccccc1-2 (configuration not stated)	-0.06
Cc1ccc2oc(-c3cccc(NC(=O)c4ccccc4F)c3C)nc2c1	1.1
Cc1cccc(-n2ccnc2SCC(=O)Nc2ccc(OC(F)(F)F)cc2)c1C	0.69
CCCc1sc2[nH]c(=S)n(-c3ccccc3)c(=O)c2c1C	-0.42
O=C(CCN1C(=O)COc2ccccc21)NCc1ccccn1	-0.27
CCCn1c(CNC(=O)c2ccc(OC)c(OC)c2)nc2ccccc21	-0.4
CCOc1ccc(C(=O)Nc2ccc(S(=O)(=O)Nc3nnc(CC)s3)cc2)cc1	2.2

Structures listed so far marked active in Measles inh.
SMILES	Measles inh
Cc1ccc(CNC(=O)CSc2nc3ccsc3c(=O)n2Cc2ccccc2F)cc1	-3.9*

In a second layout: 6 of the compounds above.
Measles inh	SMILES
0.47	O=C(CCCn1c(=S)[nH]c2cc3c(cc2c1=O)OCO3)NC1CC1
1.4	O=C(O)CC(NC(=O)c1ccc([N+](=O)[O-])cc1)c1ccc(F)cc1 (configuration not stated)
0.39	CCN(C(=O)CCS(=O)(=O)c1ccc2c(c1)CCN2C(C)=O)c1ccc(C)c(C)c1
0.92	O=C(O)c1cc(Sc2ccccc2)nc2ccccc12
0.43	O=C(Nc1ccc(Cl)cn1)c1ccc(Br)cc1
0.13	CN(C)c1ccc2[nH]c(=S)n(CC3CCCO3)c(=O)c2c1 (configuration not stated)

The results go on.
SMILES	Measles inh
CCc1cc2c(SCC(=O)c3ccc(C)cc3)ncnc2s1	1.1
CCC1CCC(C(=O)Nc2ccc(OC)cc2)CC1 (configuration not stated)	-0.25
O=C1c2ccccc2C2(O)N(c3ccccc3)C(=S)N(c3ccccc3)C12O (configuration not stated)	2.4
C=CCN(c1ccccc1)S(=O)(=O)c1ccc(F)c(C(=O)Nc2ccc(CC)cc2)c1	-1.4
O=C(NCc1ccccc1)c1ccc([N+](=O)[O-])cc1SCc1ccccc1	-0.65
Nc1ccccc1N1C(=O)c2ccccc2C1=O	-0.09
COc1cccc(CNC(=O)CCNS(=O)(=O)c2ccc(Cl)cc2)c1	2.5
CCOc1cccc2c1OC(c1cccc(Cl)c1)N1N=C(c3cccnc3)CC21 (configuration not stated)	0.04
CSc1ccc(C2Nc3ccccc3NC3=C2C(=O)CC(c2ccccc2)C3)cc1 (configuration not stated)	-0.34
COc1ccc(-c2cc3cc(OC)c(OC)cc3c(Cc3ccccc3)n2)cc1C	-0.7
Nc1cccc(N)c1NC(=O)c1ccccc1	-0.09
CCn1c(=O)n(CC(=O)N2CCC(C)CC2)c(=O)c2ccccc21	-0.52
O=C(NCc1ccc2c(c1)OCO2)c1ccc(N2CCOCC2)c([N+](=O)[O-])c1	0.42
NS(=O)(=O)c1ccc(NC(=O)C(c2ccccc2)c2ccccc2)cc1	0.15
